Screens deposited in PubChem by National Center for Advancing Translational Sciences (NCATS).
VDR inhibitor: inhibitors of human vitamin D receptor; P11473; VDR-SRC2-3 peptide fluorescence polarization, 2 h; Potency, µM, inactives show max response, negative = inhibition, usual class: inhibitors; hit rate 0.93% among 400,000; AID 504847; active means well fitted inhibition curve with a large enough effect; inconclusive means small, poorly fitted or top-dose-only effect, or another doubt; inactive means no such curve, though single readings can be large or run the other way; further: series mostly up to about 120 µM
Target sequence (P11473 whole entry, looked up): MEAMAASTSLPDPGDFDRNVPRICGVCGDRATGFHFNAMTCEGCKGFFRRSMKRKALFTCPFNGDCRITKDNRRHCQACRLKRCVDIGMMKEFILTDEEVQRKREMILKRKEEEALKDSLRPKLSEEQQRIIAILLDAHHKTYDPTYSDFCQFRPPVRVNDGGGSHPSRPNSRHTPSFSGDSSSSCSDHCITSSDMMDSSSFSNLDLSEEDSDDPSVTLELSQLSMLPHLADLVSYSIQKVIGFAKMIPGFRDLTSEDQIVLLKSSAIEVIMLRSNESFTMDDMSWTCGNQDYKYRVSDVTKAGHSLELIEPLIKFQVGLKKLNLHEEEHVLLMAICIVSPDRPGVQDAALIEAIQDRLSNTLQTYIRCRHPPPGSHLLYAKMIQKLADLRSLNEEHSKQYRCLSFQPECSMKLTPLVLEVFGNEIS
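Inhibition of the VDR/SRC2-3 peptide interaction is quantified by fluorescence polarization. Compounds (23 nl, pintool) incubate with the reagents for 2 hours at ambient room temperature.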
An asterisk follows results filed as active; ? = inconclusive; & = joins results of further samples. On the % scale 0 is the no-effect control and ±100 the full control effect; potency means the concentration at half of the fitted maximal effect. Some of the compounds tested (hit frequency here may not be typical).

SMILES | VDR inhibitor
CCOC(=O)C(CCc1nnc(N)s1)C(=O)OCC | 11.3%
Cc1cccc(S(=O)(=O)Nc2cccc(-c3cn4ccsc4n3)c2)c1 | 2.5%
COc1ccc(C(=O)CSc2nc(C(C)(C)C)nc3ccccc23)cc1 | -8.2%
C[C@H](O)[C@@H]1C(=O)N2CCc3ccc(-c4cccc(F)c4)cc3[C@@H]2C[C@@H]1N(C)C(=O)C(C)(C)C | 3.5%
COc1ccc(CNn2c(-c3cccs3)nc3ccccc3c2=O)cc1OC | 3.4%
CC1CCC(N2CCN(S(=O)(=O)Cc3ccccc3)CC2)CC1 (centres undefined) | -10.9%
O=C(COc1ccc(Cl)cc1Cl)N1CCN(c2ccccn2)CC1 | 11.2%
C=C(C)Cn1c(N2CCN(CC)CC2)nc2c1c(=O)[nH]c(=O)n2C | -2.4%
CCOc1ccc(CCNC(=O)C2CCCN2C(=O)OCc2ccccc2)cc1OCC (centres undefined) | -2.9%
O=c1cc(-c2ccc(O)cc2)oc2ccccc12 | -10.5%
COc1ccc(CCNC(=O)Cn2cccc2C(=O)c2ccccc2)cc1OC | -10.8%
CCC1CCCCN1C(=O)CSc1n[nH]c(N)n1 (centres undefined) | -3.2%
CC(=O)N1CCc2cc(Br)cc(S(=O)(=O)N3CCN(C(=O)c4ccco4)CC3)c21 | -5.7%
O=C1CCCC/C1=C\Nc1ccc(C(=O)O)c(O)c1 | -3.9%
COc1cc(-c2nc(Cc3c(F)cccc3Cl)no2)cc(OC)c1OC | -4.1%
Cc1ccc(Sc2ccc(CN3CCCCC3)cc2[N+](=O)[O-])cc1 | -17.1%
Cc1nn(C(=O)COc2ccccc2Br)c(C)c1Sc1ccccc1 | 10.2%
CCC(C)COC(c1ccccc1)(c1ccccc1)C(Oc1nc(C)cc(C)n1)C(=O)O (centres undefined) | -14.3%
CN(C)c1ccc(CNCC2CCCO2)cc1 (centres undefined) | -6.6%
Cc1ccc(NC(=O)CCC(=O)c2cccs2)cc1 | -7.7%
O=C(c1cc2ccccc2[nH]1)N1O[C@@H]2C=C[C@H]1C2 | 12.0%
NC(=O)Cn1c(-c2nonc2N)nc2ccccc21 | 14.0%
CCOC(=O)c1nn(-c2ccc(Cl)cc2)c2nc(Nc3ccccc3)cc(=O)n12 | 9.4%
COc1cc(/C=C2\SC(=S)N(C(C(=O)O)c3ccccc3)C2=O)cc(OC)c1OC (centres undefined) | ?
COC(=O)Nc1ccc(S(=O)(=O)N2CCCC(C(=O)N3CCOCC3)C2)cc1 (centres undefined) | -22.8%

Five entries out of the list, sorted by molar mass, high to low:
SMILES | VDR inhibitor
CC(=O)N1CCc2cc(Br)cc(S(=O)(=O)N3CCN(C(=O)c4ccco4)CC3)c21 | -5.7%
C[C@H](O)[C@@H]1C(=O)N2CCc3ccc(-c4cccc(F)c4)cc3[C@@H]2C[C@@H]1N(C)C(=O)C(C)(C)C | 3.5%
COc1cc(/C=C2\SC(=S)N(C(C(=O)O)c3ccccc3)C2=O)cc(OC)c1OC (centres undefined) | ?
CCC(C)COC(c1ccccc1)(c1ccccc1)C(Oc1nc(C)cc(C)n1)C(=O)O (centres undefined) | -14.3%
O=c1cc(-c2ccc(O)cc2)oc2ccccc12 | -10.5%

Continued.
SMILES | VDR inhibitor
CCOC(=O)c1cc(NC(=O)N2CCCCC2)c(C)nc1C | -15.2%
Cc1ccc(Cn2c(C3CCCN3c3nc(-c4cc(Cl)c(N)c(Cl)c4)cs3)nc3cc(Cl)c(Cl)cc32)cc1 (centres undefined) | -11.3%
O=C(COc1ccc([N+](=O)[O-])cc1)NNC(=O)c1cccnc1 | 6.3%
O=C1CCCN1c1ccc(C(=O)N(Cc2nnc(-c3ccc(Cl)cc3)o2)C2CC2)cc1 | -5.2%
O=C(NCC1CCCCC1)C1CCCN(C(=O)NC2CCCCC2)C1 (centres undefined) | -13.9%
CC(C)CC(=O)Nc1nnc(SCC(=O)NCc2ccco2)s1 | -0.1%
CCOc1ccc(OCCC(=O)OCC(=O)Nc2cc(S(=O)(=O)N3CCOCC3)ccc2OC)cc1 | -9.9%
Cc1cccc2c(=O)cc(C)n(Cc3ccccc3)c12 | -8.5%
C=CCN1C(=O)C2C3C=CC(C2C1=O)C1C2C(=O)N(CC=C)C(=O)C2C31 (centres undefined) | 0.6%
CC(=O)Nc1ccc(S(=O)(=O)N2CCN(c3cc(C)nc4ccccc34)CC2)cc1 | 4.9%
CC(=O)Nc1ccc(NC(=O)C2CC(=O)N(Cc3ccco3)C2)cc1 (centres undefined) | ?
COc1ccc(/C(C)=N/NC(=O)C2CC2)cc1 | -4.0%
CCCn1c2ccccc2c2cnn(CC(=O)NC(CCSC)C(=O)OC)c(=O)c21 (centres undefined) | 6.6%
Cc1ccc(CNC(=O)c2cc3c(s2)CS(=O)(=O)C3)cc1 | -14.4%
Cn1cnc2nc[nH]c2c1=O | 11.1%
CCC(=O)Nc1ccc(NC(=O)c2cccc(OC)c2)nc1 | -11.2%
CSCCC(NC(=O)c1cccc(S(=O)(=O)N2CCOCC2)c1)C(=O)Nc1ccc(F)cc1 (centres undefined) | -7.4%
CC(C)CC(=O)Nc1nnc(SCC(=O)NCc2ccc3c(c2)OCO3)s1 | 12.7%
CCOC(=O)C1CCCN(Cc2nc3ccc([N+](=O)[O-])cc3c(=O)n2-c2ccc(OC)cc2OC)C1 (centres undefined) | -22.2%
Cc1cccc(NC(=O)c2cc(=O)c3ccccc3o2)c1 | -1.5%
COc1ccc(C(=O)NCCNC(C)=O)cc1S(=O)(=O)NCc1ccc(Cl)cc1 | 5.8%
COc1ccccc1CNC(=O)CSc1ccsc1[N+](=O)[O-] | -10.4%
CC(C)(C)CC(C)(C)NC(=O)Nc1cccc([N+](=O)[O-])c1 | -26.5%
O=C(COC(=O)c1cc([N+](=O)[O-])ccc1N1CCOCC1)Nc1c(Cl)cccc1Cl | -2.3%
O=C(CC(=O)N1CCOCC1)N1CCOCC1 | 6.1%
More records:
SMILES | VDR inhibitor
CC(NC(=O)C1CCC(=O)N1Cc1ccccc1Cl)c1ccccc1 (centres undefined) | -0.9%
COc1ccccc1NC(=O)NCC(c1ccco1)N1CCCCC1 (centres undefined) | 24.6%
Cc1ccc2cc(CN(c3ccc(C)c(C)c3)S(C)(=O)=O)c(=O)[nH]c2c1 | 1.5%
CCOc1ccc(CN2CCNC(=O)C2CC(=O)N(C)C2CCCCC2)cc1 (centres undefined) | -10.7%
COc1ccc(CCn2cnc3c([nH]c4ccccc43)c2=O)cc1 | -0.4%
COc1ccc(/C=C/C(=O)NCc2cn(C)nc2C)cc1COc1ccc(Cl)cc1Br | 6.3%
CN(CC(=O)Nc1cccc(C(F)(F)F)c1)S(=O)(=O)c1ccc2[nH]c3c(c2c1)CCCC3 | 8.7%
Cn1c[n+](C)cc1-c1ccc(/C(N)=N/O)cc1 | -2.6%
CCOc1ccccc1NCc1nnc2n1CCCCC2 | 13.3%
CCN(Cc1ccccc1)C(=O)c1cc2c(=O)oc3ccc(C)cc3c2s1 | -19.0%&-22.2%
COC(=O)C1C2C=CC3(CN(Cc4ccco4)C(=O)C13)O2 (centres undefined) | 14.2%
Cc1onc(-c2ccccc2)c1C(=O)NCc1ccc2c(c1)OCO2 | 8.7%
COc1cccc(NC(=O)CSc2nc3c(sc4ccccc43)c(=O)n2CCN(C)C)c1 | ?
O=S(=O)(c1cc(Cl)ccc1Cl)N1CC2CCCN2c2ccc(C(F)(F)F)cc21 (centres undefined) | -0.9%
CCc1ccc(C(=O)c2cn(CC(=O)Nc3ccc4c(c3)OCCO4)c3ccc(C)cc3c2=O)cc1 | -16.3%
Cc1ccc(S(=O)(=O)N2CCOCC2)cc1C(=O)Nc1ccc2c(c1)OCCO2 | -24.7%
O=C(Nc1cc2c(cc1C(=O)O)OCCCO2)c1ccc(F)cc1F | 5.3%
COc1ccc(C(=O)NC(=S)Nc2ccccc2N2CCOCC2)cc1Br | 1.9%
C=CCN(c1ccc(C(=O)OC)cc1)S(=O)(=O)c1ccccc1 | -8.3%
COc1cc(/C=C/CN2CCC(Oc3ccc(C(=O)N4CCCC4)cc3)CC2)ccc1O | -7.0%
COc1ccc(/C=C2\C(=N)N3N=C(CC(=O)N4CCOCC4)SC3=NC2=O)cc1 | -3.7%
CC(=O)Nc1ccc(-c2sc(Nc3cccc4ccccc34)n[n+]2-c2ccccc2)cc1 | -5.1%
CC(C)CN(C(=O)Cn1c(C(F)(F)F)nc2ccccc21)C1CCS(=O)(=O)C1 (centres undefined) | -8.8%
CC(=O)C(Cc1ccc(Cl)nc1)Cc1ccc(Cl)nc1 | -10.4%
O=C(Nc1c2c(nn1-c1ccccc1)CS(=O)(=O)C2)C1CCCC1 | 1.9%
The listing continues.
SMILES | VDR inhibitor
O=C1c2ccccc2-c2cccc(C(=O)N3CCCCCC3)c21 | -17.3%
O=C(O)CCNS(=O)(=O)c1cccc(Br)c1 | -5.9%
Nc1nonc1-n1nnc(C(=O)N/N=C/c2ccc(Cl)cc2Cl)c1CN1CCOCC1 | -6.0%
CSc1ccc(CN2CCCC(CO)(Cc3ccccc3)C2)cc1 (centres undefined) | 6.9%
O=C(NCCCO)c1nn(-c2ccc(Cl)cc2)nc1CO | 7.2%
C[C@H]1CN(S(=O)C(C)(C)C)[C@H](CCO)/C1=C\c1ccccc1 (some centres undefined) | -2.8%
CCOc1ccc(NC(=O)N2CCN(S(=O)(=O)c3ccc4c(ccn4C)c3)CC2)cc1 | -14.3%
CCOc1ncnc2c1oc1nc(CC(C)C)c3c(c12)CC(C)(C)OC3 | 2.5%
COc1ccc(NC2CCCN(C(=O)CCc3ccccc3F)C2)cc1 (centres undefined) | -16.8%
CC(=O)NC12CC3CC(C1)CC(C(=O)OCC(=O)Nc1c(F)cccc1F)(C3)C2 | -11.3%
Cc1ccc2nc(C)c(C(=O)N/N=C/c3ccco3)cc2c1 | -16.6%
COc1ccc(NC(C)=O)cc1NC(=O)C1CCN(C(=O)Nc2ccccc2)CC1 | -4.2%
CCN1CCN(C(=O)c2cc(-c3ccc(Cl)s3)nc3ccccc23)CC1 | 0.9%
COC(=O)C1=C(C)NC2=C(C(=O)c3ccccc32)C1c1cccc(OC)c1 (centres undefined) | -5.0%
Cc1ccc(NC(=O)[C@H](C)NC(=O)C2CCN(C(=O)[C@@H](NC(=O)OC(C)(C)C)C(C)C)CC2)cc1 | -12.7%
COc1ccc(NC(=O)[C@@H]2CC=C[C@@H]3CCN(Cc4ccc(Cl)c(Cl)c4)C(=O)[C@@H]32)cc1 | -4.5%
CC(=O)N/C(=C/c1ccc2c(c1)OCO2)C(=O)NCCCO | 11.3%
Cc1ccc(C(C)C)c(OCC(=O)NN=C2CCCCCCC2)c1 | -6.1%
Cc1cc(C(=O)CSc2nnc(-c3ccc(Cl)cc3)n2CC2CCCO2)c(C)n1C (centres undefined) | ?
COc1ccc(Oc2ncc3nc(-c4ccc(OC)cc4)c(=O)n(C)c3n2)cc1 | -5.1%
COc1ccc(C(CNC(=O)c2cccc(Br)c2)N2CCCC2)cc1 (centres undefined) | 6.8%
CCCCn1c(N)c(N(CC(C)C)C(=O)CCCc2nc3ccccc3c(=O)[nH]2)c(=O)[nH]c1=O | -6.6%
COC(=O)c1ccc(NC(=O)C(c2ccccc2)N2Cc3ccccc3C2=O)cc1 (centres undefined) | 5.1%
CC(Sc1nnc(CN2CCCC2)n1Cc1ccccc1)C(=O)Nc1ccc(F)cc1 (centres undefined) | -2.4%
CN(C)c1nc(Nc2ccc(F)cc2)nc(Oc2ccc(F)cc2)n1 | 1.7%

Part of the list above, with tabs:
mol	VDR inhibitor
COC(=O)C1C2C=CC3(CN(Cc4ccco4)C(=O)C13)O2 (centres undefined)	14.2%
Cc1onc(-c2ccccc2)c1C(=O)NCc1ccc2c(c1)OCO2	8.7%
COc1cccc(NC(=O)CSc2nc3c(sc4ccccc43)c(=O)n2CCN(C)C)c1	?
O=S(=O)(c1cc(Cl)ccc1Cl)N1CC2CCCN2c2ccc(C(F)(F)F)cc21 (centres undefined)	-0.9%
CCc1ccc(C(=O)c2cn(CC(=O)Nc3ccc4c(c3)OCCO4)c3ccc(C)cc3c2=O)cc1	-16.3%

Additional compounds:
SMILES | VDR inhibitor
CCC1Oc2ccc(C)cc2N(CC(=O)N2CCN(c3ccc(F)cc3)CC2)C1=O (centres undefined) | -11.1%
CC1CCCCC1NC(=O)CSc1nnc(CC(=O)Nc2ccccc2F)n1C (centres undefined) | -0.8%
Cc1cc2oc(=O)cc(CN(C)Cc3ccccc3)c2cc1C(C)C | -12.8%
CC(NC(=O)c1ccccc1F)C1CC1 (centres undefined) | 11.1%
O=c1oc2ccccc2c(Nc2cc3ccccc3cc2O)c1[N+](=O)[O-] | 21.2%
COc1nc(-c2ccc(Cl)cc2Cl)nc2ccccc12 | -7.9%
CCc1nc(N)c(C#N)c(-c2cccnc2)c1C | -13.4%
O=C1C=C(O)CC(c2ccc(Cl)cc2)C1 (centres undefined) | 3.5%
Cc1ccccc1NC(=O)Cn1nnc2c(cnn2-c2ccc(F)cc2)c1=O | 22.6%
CCOC(=O)c1c(NC(=O)c2nc(SC)ncc2Cl)sc(C)c1C | -1.5%
Cc1ccc(S(=O)(=O)/N=C2/NC(=O)/C(=C/c3cccnc3)S2)cc1 | ?
CN(C)S(=O)(=O)n1cc(/C=C(\NC(=O)c2ccccc2Cl)C(=O)N2CCOCC2)c2ccccc21 | 2.8%
COc1cc(S(=O)(=O)N2CCn3cccc3C2C)ccc1NC(C)=O (centres undefined) | 0.2%
Cc1cc(=O)[nH]c(CN2CCOCC2)n1 | 9.8%
CCCN1CCC(=O)N(C(CSc2ccc(OC)cc2)Cc2ccccc2)CC1 (centres undefined) | -22.7%
Cc1ccccc1OCC(=O)Nc1ccc(NC(=O)c2ccco2)cc1 | -15.7%
